Compound activity deposited in PubChem BioAssay by Broad Institute.
Vaccinia stage: Vaccinia orthopox stage-specific inhibition | Vaccinia-infected cells, mCherry/Venus stage reporter fluorescence; active compounds read low; some inactives read as strong as hits | activity change (mCherry), % (concentration not given with the values) | hit rate 0.01% among 89,000;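 active means mCherry past -33% and 40 or more points under the early reporter, replicates agreeing; inconclusive means past -33% without that gap or agreement; tested in A549 cells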;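 further: scaled between vehicle wells and reference inhibitor wells; 23 nL library stock went into each well; one replicate is shown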
Vaccinia stage Venus: further read-out of Vaccinia stage, marked with its call; activity change (Venus), %; measured here: Venus reporter, other viral stage;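 negative = less Venus signal; first of two replicates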
* = called active by the depositor; ? = inconclusive; / = not tested or not shown; & = joins results of further samples.

SMILES	Vaccinia stage	Vaccinia stage Venus
C[C@H]1CCCCO[C@@H](CN(C)C(=O)c2ccncc2)[C@@H](C)CN([C@@H](C)CO)C(=O)c2cc(N(C)C)ccc2O1	-5	-8
CCCNC(=O)Nc1ccc2c(c1)C(=O)N(C)[C@@H]1CC[C@H](CC(=O)NCc3ccccc3)O[C@H]1CO2	4	3
C[C@@H]1CN([C@@H](C)CO)C(=O)c2cccc(NC(=O)NC3CCCCC3)c2O[C@H]1CN(C)S(=O)(=O)c1ccc(F)cc1	-11	-9
CN(C)CCCNC(=O)C[C@@H]1CC[C@H]2[C@@H](COC[C@@H](O)CN2Cc2cccc(C(F)(F)F)c2)O1	-5	-1
O=C(C[C@H]1CC[C@H]2[C@@H](COC[C@H](O)CN2CC2CCCCC2)O1)NCc1ccc(Cl)cc1	-7	-13
C[C@H]1CN([C@@H](C)CO)C(=O)Cc2cc(NC(=O)Nc3cccc4ccccc34)ccc2O[C@@H]1CN(C)C(=O)Nc1ccc(C(F)(F)F)cc1	4	16
COc1ccc(S(=O)(=O)Nc2ccc3c(c2)C(=O)N([C@@H](C)CO)C[C@@H](C)[C@H](CN(C)C(=O)Nc2ccc(F)cc2)OCCCC[C@@H](C)O3)cc1	-14	-15
CN1c2ccc(-c3ccccc3)cc2[C@H]2[C@H](CCN2S(=O)(=O)c2ccccc2F)[C@H]1CO	?	/
C[C@H]1CN([C@@H](C)CO)C(=O)c2cc(NS(=O)(=O)c3ccccc3)ccc2O[C@@H]1CN(C)S(=O)(=O)c1cccs1	-2	-4
COc1ccc2c3c(n(C)c2c1)[C@@H](CO)N(C(=O)C1CCCC1)CC31CCN(C(=O)c2ccncc2)CC1	0	2
CCN1[C@H](C(=O)Nc2ccccc2)[C@@H](CO)[C@@H]2Cn3c(ccc(-c4ccc(F)cc4)c3=O)[C@@H]21	13	12
O=C(C[C@@H]1CC[C@H](NC(=O)Nc2ccc3c(c2)OCO3)[C@@H](CO)O1)NCc1ccccc1	15	18
C[C@H](CO)N1C[C@H](C)[C@H](CN(C)C(=O)Nc2ccccc2F)Oc2ncc(-c3ccccc3)cc2C1=O	16	-2
O=C(Cc1ccccn1)NCC[C@H]1CC[C@H](NC(=O)Nc2ccc(Cl)cc2)[C@H](CO)O1	6	7
C[C@@H]1CN([C@@H](C)CO)C(=O)c2cc(NS(=O)(=O)c3ccc(F)cc3)ccc2O[C@H]1CN(C)Cc1ccc(-c2ccccc2)cc1	-10	-7
C[C@H](CO)N1C[C@H](C)[C@@H](CN(C)C(=O)Nc2cccc3ccccc23)OCCCC[C@H](C)Oc2ccc(NS(=O)(=O)c3ccc(Cl)cc3)cc2C1=O	12	11
C[C@H]1CCCCO[C@H](CN(C)C(=O)c2ccncc2)[C@@H](C)CN([C@@H](C)CO)C(=O)c2cc(NC(=O)c3ccccc3)ccc2O1	-4	-8
OC[C@@H]1[C@@H](c2ccc(-c3cccnc3)cc2)[C@H]2CN(CC3CCOCC3)CCCCN12	18	6
C[C@@H]1CN([C@H](C)CO)C(=O)Cc2cc(NS(=O)(=O)c3cccs3)ccc2O[C@@H]1CN(C)C	1	-1
C[C@@H]1CCCCO[C@@H](CN(C)C)[C@@H](C)CN([C@@H](C)CO)C(=O)c2cc(NC(=O)Nc3ccc(F)cc3)ccc2O1	5	9
COCC(=O)Nc1ccc2c(c1)C(=O)N(C)C[C@@H](OC)[C@@H](C)CN(Cc1ccccc1F)[C@H](C)CO2	-21	-17
CO[C@@H]1CN(C)C(=O)c2cc(NC(=O)NC(C)C)ccc2OC[C@H](C)N(C)C[C@@H]1C	4	9
C[C@H](CO)N1C[C@H](C)[C@H](CN(C)Cc2ccccc2)Oc2ncc(-c3ccccc3)cc2C1=O	-12&-10	-4&-1
Cc1ccc(S(=O)(=O)N(C)C[C@H]2Oc3c(NS(=O)(=O)c4ccc(Cl)cc4)cccc3C(=O)N([C@H](C)CO)C[C@H]2C)cc1	-19	-10
O=C(NC[C@H]1[C@@H](c2ccccc2)[C@@H](CO)N1Cc1ccccn1)C1CC1	4	1
COc1cccc(NC(=O)N(C)C[C@H]2Oc3cc(-c4ccccc4OC)ccc3S(=O)(=O)N([C@H](C)CO)C[C@@H]2C)c1	-24	-17
C[C@H]1CN([C@@H](C)CO)S(=O)(=O)c2ccc(C#Cc3ccccc3F)cc2O[C@@H]1CN(C)C(=O)Cc1cccnc1	?	/
CNC[C@H]1Oc2ccc(NS(=O)(=O)c3ccc(OC)cc3)cc2C(=O)N([C@@H](C)CO)C[C@@H]1C	11	6
C[C@@H]1CN([C@H](C)CO)C(=O)CCCn2nncc2CO[C@H]1CN(C)S(=O)(=O)c1cccs1	17	25
O=C(C[C@H]1CC[C@H](NC(=O)c2ccccc2)[C@@H](CO)O1)NCCc1ccncc1	7	3
COc1ccc(NC(=O)N(C)C[C@@H]2Oc3cc(C#CCN(C)C)ccc3S(=O)(=O)N([C@H](C)CO)C[C@H]2C)cc1	-5	-5
C[C@H](CO)N1C[C@H](C)[C@@H](CN(C)Cc2ccc(C(=O)O)cc2)OCCCC[C@H](C)Oc2ccc(NC(=O)Nc3ccccc3)cc2C1=O	22	8
C[C@H](CO)N1C[C@H](C)[C@H](CN(C)C(=O)c2ccc3c(c2)OCO3)Oc2ncc(C#CCN(C)C)cc2C1=O	7	5
CC(C)NC(=O)N[C@@H]1CC[C@@H](CCNC(=O)C2CCCC2)O[C@H]1CO	4	-5
C/C=C/c1ccc2c(c1)O[C@H](CN(C)Cc1ccccn1)[C@@H](C)CN([C@H](C)CO)S2(=O)=O	17	12
CO[C@H]1CN(C)C(=O)c2ccc(NC(C)=O)cc2OC[C@H](C)N(C(=O)CN2CCOCC2)C[C@@H]1C	8	10
Cc1ccc(S(=O)(=O)N[C@@H]2CC[C@H](CC(=O)NCc3ccncn3)O[C@@H]2CO)cc1	-9	2
CN(C)c1ccc2c(c1)[C@H]1C[C@H](CC(=O)NCc3ccc(Oc4ccccc4)cc3)O[C@@H](CO)[C@H]1O2	?	/
C[C@H]1CN([C@@H](C)CO)C(=O)c2cc(C#CC3CC3)cnc2O[C@@H]1CN(C)Cc1ccccn1	-5	-1
OC[C@@H]1[C@H](c2ccc(/C=C/c3ccccc3)cc2)[C@@H]2CN(Cc3ccncc3)CCCCN12	-12	-5

Two entries from above, as a markdown table:
| SMILES | Vaccinia stage | Vaccinia stage Venus |
| --- | --- | --- |
| Cc1ccc(S(=O)(=O)N(C)C[C@H]2Oc3c(NS(=O)(=O)c4ccc(Cl)cc4)cccc3C(=O)N([C@H](C)CO)C[C@H]2C)cc1 | -19 | -10 |
| O=C(NC[C@H]1[C@@H](c2ccccc2)[C@@H](CO)N1Cc1ccccn1)C1CC1 | 4 | 1 |

Further entries follow:
SMILES	Vaccinia stage	Vaccinia stage Venus
C[C@@H]1CCCCO[C@H](CN(C)C(=O)CCC(F)(F)F)[C@@H](C)CN([C@H](C)CO)C(=O)c2cc(NS(=O)(=O)c3ccc(F)cc3)ccc2O1	-7	-1
CC(C)NC(=O)N(C)C[C@@H]1Oc2ncc(/C=C/c3ccccc3)cc2C(=O)N([C@H](C)CO)C[C@@H]1C	15	-4
CN1C(=O)c2cc(NC(=O)c3cccs3)ccc2OC[C@@H]2O[C@H](CC(=O)NCC(F)(F)F)CC[C@H]21	7	-2
CO[C@H]1CN(C)C(=O)c2cc(NC(C)=O)ccc2OC[C@@H](C)NC[C@H]1C	4	7
Cc1ccc(-c2ccc3c(c2)O[C@@H](CN(C)Cc2cccnc2)[C@@H](C)CN([C@H](C)CO)S3(=O)=O)cc1	-29	-22
CO[C@H](CN(C)CC1CCOCC1)[C@@H](C)CN(C(=O)Nc1ccc(F)cc1)[C@H](C)CO	14	15
C[C@H](CO)N1C[C@H](C)[C@@H](CN(C)C(=O)C2CCOCC2)Oc2ncc(-c3cccc(C#N)c3)cc2C1=O	20	10
COCC(=O)N1[C@H](CO)[C@H]2c3ccccc3N(C(=O)c3ccncc3)C[C@H]21	3	3
CN1CCN(C(=O)C[C@H]2C[C@@H]3c4cc(NS(C)(=O)=O)ccc4O[C@@H]3[C@@H](CO)O2)CC1	2	8
Cc1ccc(S(=O)(=O)Nc2cccc3c2O[C@@H](CN(C)Cc2ccncc2)[C@H](C)CN([C@@H](C)CO)C3=O)cc1	-3	8

Sorted by heavy-atom count (smallest number first): ten of the compounds above.
SMILES	Vaccinia stage	Vaccinia stage Venus
CO[C@H]1CN(C)C(=O)c2cc(NC(C)=O)ccc2OC[C@@H](C)NC[C@H]1C	4	7
COCC(=O)N1[C@H](CO)[C@H]2c3ccccc3N(C(=O)c3ccncc3)C[C@H]21	3	3
CN1CCN(C(=O)C[C@H]2C[C@@H]3c4cc(NS(C)(=O)=O)ccc4O[C@@H]3[C@@H](CO)O2)CC1	2	8
CO[C@H](CN(C)CC1CCOCC1)[C@@H](C)CN(C(=O)Nc1ccc(F)cc1)[C@H](C)CO	14	15
OC[C@@H]1[C@H](c2ccc(/C=C/c3ccccc3)cc2)[C@@H]2CN(Cc3ccncc3)CCCCN12	-12	-5
CC(C)NC(=O)N(C)C[C@@H]1Oc2ncc(/C=C/c3ccccc3)cc2C(=O)N([C@H](C)CO)C[C@@H]1C	15	-4
CN(C)c1ccc2c(c1)[C@H]1C[C@H](CC(=O)NCc3ccc(Oc4ccccc4)cc3)O[C@@H](CO)[C@H]1O2	?	/
C[C@H](CO)N1C[C@H](C)[C@@H](CN(C)C(=O)C2CCOCC2)Oc2ncc(-c3cccc(C#N)c3)cc2C1=O	20	10
Cc1ccc(S(=O)(=O)Nc2cccc3c2O[C@@H](CN(C)Cc2ccncc2)[C@H](C)CN([C@@H](C)CO)C3=O)cc1	-3	8
C[C@@H]1CCCCO[C@H](CN(C)C(=O)CCC(F)(F)F)[C@@H](C)CN([C@H](C)CO)C(=O)c2cc(NS(=O)(=O)c3ccc(F)cc3)ccc2O1	-7	-1

(more compounds)
SMILES	Vaccinia stage	Vaccinia stage Venus
C[C@H](CO)N1C[C@H](C)[C@@H](CN(C)C(=O)Nc2ccc(C(F)(F)F)cc2)Oc2ccc(NC(=O)Nc3cccc4ccccc34)cc2C1=O	13	9
CC=Cc1ccc2n(c1=O)C[C@@H]1[C@@H](CO)[C@H](C(=O)NCC)[C@H]2N1C(=O)Nc1cc(F)ccc1F (mixture of isomers)	16	12
C[C@@H]1CN([C@H](C)CO)C(=O)c2cc(C#Cc3ccccc3F)cnc2O[C@H]1CN(C)S(=O)(=O)c1ccccc1	-23	-20
COc1ccc(-c2ccc([C@@H]3[C@@H](CO)N4C(=O)CN(C(=O)C5CCCC5)C[C@@H]34)cc2)cc1	-28	-16
Cc1noc(C)c1S(=O)(=O)Nc1cccc2c1O[C@@H](CN(C)C(=O)Nc1ccc(F)cc1)[C@@H](C)CN([C@@H](C)CO)C2=O	3	7
CCC(=O)N(C)C[C@@H]1Oc2cc(C#CC(C)C)ccc2S(=O)(=O)N([C@H](C)CO)C[C@H]1C	3	-1
Cc1ccc(S(=O)(=O)N2C[C@@H]3N[C@H](C2)C3c2ccc(/C=C/c3ccccc3)cc2)cc1 (some centres undefined)	2&13	-1&14
C[C@H]1CN([C@@H](C)CO)C(=O)Cc2cc(NC(=O)Cn3cnnn3)ccc2O[C@@H]1CN(C)Cc1ccc(C(F)(F)F)cc1	10	3
CCNC(=O)C[C@H]1CC[C@@H]2[C@H](COC[C@H](O)CN2Cc2ccc(Cl)c(Cl)c2)O1	-15	-12
C[C@H]1CCCCO[C@H](CN(C)C(=O)CCC(F)(F)F)[C@@H](C)CN([C@@H](C)CO)C(=O)c2cc(N(C)C)ccc2O1	-32	-22
COc1ccccc1CNC(=O)C[C@H]1C[C@@H]2c3cc(NC(=O)Nc4ccc(C(F)(F)F)cc4)ccc3O[C@@H]2[C@@H](CO)O1	-16	-6
COc1ccccc1-c1cnc2c(c1)C(=O)N([C@H](C)CO)C[C@@H](C)[C@H](CN(C)C)O2	20	9
CN1C(=O)c2cc(NC(=O)c3ccc(C(F)(F)F)cc3)ccc2OC[C@@H]2O[C@@H](CC(=O)O)CC[C@H]21	1	-3
C[C@@H]1CCCCO[C@@H](CN(C)C(=O)Nc2ccc3c(c2)OCO3)[C@@H](C)CN([C@@H](C)CO)C(=O)c2cc(N(C)C)ccc2O1	8	11
C[C@@H]1CN([C@@H](C)CO)C(=O)c2cc(N(C)C)ccc2O[C@H]1CN(C)Cc1ccc(Oc2ccccc2)cc1	-19	-18
COc1ccc(S(=O)(=O)Nc2ccc3c(c2)C(=O)N([C@@H](C)CO)C[C@@H](C)[C@@H](CN(C)C(=O)CCC(F)(F)F)OCCCC[C@@H](C)O3)cc1	-19	-7
CC(=O)N1[C@H](CNC(=O)C2CC2)[C@@H](c2ccc(-c3ccccc3)cc2)[C@@H]1CO	-19	-17
Cc1ccc(-c2ccc([C@@H]3[C@@H](CO)N4C(=O)CN(C(=O)Nc5ccc(F)cc5)C[C@H]34)cc2)cc1	?	/
C[C@@H]1CN([C@H](C)CO)C(=O)c2cc(C3=CCCC3)cnc2O[C@@H]1CN(C)Cc1ccc(C(=O)O)cc1	17	23
COc1ccc(NC(=O)N[C@@H]2CC[C@@H](CCNC(=O)CN3CCOCC3)O[C@@H]2CO)cc1	9	9
C[C@@H]1CN([C@@H](C)CO)S(=O)(=O)c2ccc(-c3ccccc3)cc2O[C@H]1CN(C)C(=O)c1ccc2c(c1)OCO2	?	/
O=C(C[C@H]1CC[C@H](NS(=O)(=O)c2ccccc2)[C@H](CO)O1)N1CCc2ccccc2C1	-6	-4
C[C@H]1CN([C@@H](C)CO)C(=O)c2cc(NC(=O)C3CCCCC3)ccc2O[C@@H]1CN(C)CC1CCCCC1	-6	1
CCC(=O)N(C)C[C@H]1Oc2ncc(C#Cc3ccccc3OC)cc2C(=O)N([C@H](C)CO)C[C@@H]1C	23	-3
C/C=C/c1ccc([C@@H]2[C@@H](CO)N(C(=O)C3CCC3)[C@H]2CN(CC)C(=O)CC)cc1	3	-2
O=C1CNC[C@H]2[C@@H](c3ccc(C#CC4CCCCC4)cc3)[C@@H](CO)N12	4	-1
CO[C@H]1CC[C@@H]2CCN(C)C(=O)[C@H](C)[C@@H](OC)CN(C)C(=O)c3cccc(C#N)c3OC[C@H]1O2	9	10
COc1cc(CN2CC3(CN(C(=O)Nc4c(C)noc4C)C3)c3c([nH]c4cc(OC)ccc34)[C@@H]2CO)cc(OC)c1	14	16

Only part of the results is shown; rates above refer to the full screens.
